# MARV entry inh: Marburg virus entry inhibition; Marburg virus pseudotyped entry inhibition, cell reporter; control for the full effect not named in the record; about a third of the inactives were read at about 46 µM; Potency, µM (series often up to 37.8 µM), for the others: at the top dose activity change, negative = inhibition, usual class: inhibitors; 300,000 tested, 1.8% active; active = well fitted inhibition curve with a large enough effect; inconclusive = small, poorly fitted or top-dose-only effect, or effect the other way; inactive = flat fitted curve, though single readings scatter; tested in HEK293 cells; about a fifth of its hits are not listed in these tables; further: on the % scale 0 is the no-effect control and ±100 the full control effect; luciferase read-out
# SARS PLpro yeast: inhibitors of SARS-CoV papain-like protease in yeast. S. cerevisiae expressing SARS-CoV PLpro, growth rescue; control for the full effect not named in the record. Potency, µM (top dose mostly 32.9 µM), without a hit: at the top dose activity, positive = growth rescue. 330,000 tested, 0.19% active; further: 0% is about no effect; nearly all actives have a fitted effect of over 55% in size; growth read by luminescence after 48 h
# Lassa entry inh: Lassa virus entry inhibition | 300,000 tested, 1.2% active | Lassa virus pseudotype entry inhibition, cell reporter; control for the full effect not named in the record | Potency, µM (series often up to 37.9 µM), for the others: at the highest dose activity change, negative = inhibition, actives largely listed as inhibitors; active means well fitted inhibition curve with a large enough effect; inconclusive means small, poorly fitted or top-dose-only effect, or effect the other way; inactive means flat fitted curve, though single readings scatter; tested in HEK293 cells; further: on the % scale 0 is the no-effect control and ±100 the full control effect; nearly all actives have a fitted effect of over 50% in size; luciferase read-out
# Cruzain inh Det: blocks cruzain activity in presence of Triton detergent. AID 1478. Potency, µM, for inactives: max response, negative = inhibition, actives largely listed as inhibitors. 200,000 tested, 0.43% active. purified cruzain, Z-FR-AMC fluorescence, 0.01% Triton; active means well fitted curve in the direction sought with a large enough effect; inconclusive means small, poorly fitted or top-dose-only effect, or another doubt; inactive means no such curve, though single readings can be large; an effect the other way counts as inactive or inconclusive;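 further: plate controls were neutral wells for no effect and buffer without enzyme for full effect; nearly all actives have a fitted effect of over 40% in size; top concentration of the series not given in the record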
# Target sequence (P25779 123-467 limits assumed): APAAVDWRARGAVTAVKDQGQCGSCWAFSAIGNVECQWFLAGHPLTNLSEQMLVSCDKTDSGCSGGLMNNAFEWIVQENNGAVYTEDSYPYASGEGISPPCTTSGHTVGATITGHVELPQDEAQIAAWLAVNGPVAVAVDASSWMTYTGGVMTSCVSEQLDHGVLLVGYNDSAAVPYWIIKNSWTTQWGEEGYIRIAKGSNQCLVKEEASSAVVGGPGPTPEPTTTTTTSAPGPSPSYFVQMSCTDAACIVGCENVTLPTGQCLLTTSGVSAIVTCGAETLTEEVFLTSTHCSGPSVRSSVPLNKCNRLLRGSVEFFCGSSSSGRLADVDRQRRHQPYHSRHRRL
#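 Steps: dispense cruzain (1.5 nM final) in acetate buffer pH 5.5 with DTT and 0.01% Triton X-100; pin-transfer compounds; incubate 15 min RT; add Z-FR-AMC (2 uM final); read fluorescence every 30 s, using the 60 s intensity change.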
# RE007 growth inh: less growth of the S. pombe RE007 Vpr strain; S. pombe RE007 Vpr strain, BacTiter-Glo ATP luminescence, 24 h; control for the full effect not named in the record; Potency, µM (titrated, usually from 92.2 µM), inactives show at the highest dose activity change, negative = less growth; 360,000 tested, 0.21% active; AID 651644; active = well fitted falling curve with a large enough effect; inconclusive = small, poorly fitted or top-dose-only effect; inactive = no such curve, though single readings can be large or run the other way;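 further: on the % scale 0 is the no-effect control and ±100 the full control effect; nearly all actives have a fitted effect of over 50% in size; the assay follows cell death caused by Vpr and the record does not say whether a fall means rescue or toxicity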
#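 Fission yeast strain RE007, carrying one chromosomally integrated HIV-1 vpr copy, was seeded at OD 0.01 in PMG+AL medium with 23 nL pinned compound. After 24 h at 30 °C and 99% humidity, viability was read by BacTiter-Glo luminescence.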
# Cruzain noTriton: cruzain (T. cruzi) inhibition without detergent; Potency, µM, without a hit: max response, negative = inhibition, most hits filed as inhibitors; P25779; AID 1476; 200,000 tested, 2.3% active; purified cruzain, Z-FR-AMC fluorescence, no detergent; active means well fitted curve in the direction sought with a large enough effect; inconclusive means small, poorly fitted or top-dose-only effect, or another doubt; inactive means no such curve, though single readings can be large; an effect the other way counts as inactive or inconclusive;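 further: plate controls were enzyme without inhibitor for no effect and buffer without enzyme for full effect; nearly all actives have a fitted effect of over 40% in size; top concentration of the series not given in the record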
#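 Purified cruzain at 1.5 nM, pre-incubated 15 min with compound at room temperature in 100 mM sodium acetate pH 5.5, 5 mM DTT, 0.00005% Triton X-100. Reaction started with 2 uM Z-FR-AMC; AMC fluorescence increase over 60 s gives rate.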
# 2A StopGo: lowers the luciferase signal of an FMDV 2A StopGo reporter. human cells with a luciferase reporter of 2A StopGo recoding; control for the full effect not named in the record. Potency, µM (top dose mostly 57.9 µM), for inactives: at the highest dose signal change, negative = less light. 410,000 tested, 1.2% active; active = well fitted falling curve with a large enough effect; inconclusive = small, poorly fitted or top-dose-only effect; inactive = no such curve, though single readings can be large or run the other way; tested in HEK293T cells; further: on the % scale 0 is the no-effect control and ±100 the full control effect; nearly all actives have a fitted effect of over 45% in size; luciferase light after 4 h
# NS1 function inh: inhibitors of influenza NS1 protein function. Potency, µM (highest dose often 46.1 µM), for inactives: top-dose activity, positive = more growth. S. cerevisiae slowed by influenza A NS1, growth recovery by OD600. AID 2326. 270,000 tested, 0.4% active; further: actives are rising curves; nearly all actives have a fitted effect of over 50% in size
#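 Read-out: OD600 growth recovery of NS1-expressing budding yeast. Cells grown overnight at 30C in -URA glucose medium, washed, resuspended and diluted 1:100 in 2% galactose assay medium, pH 6.0. Same strain lacking NS1 served as positive control.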
# Starred values were filed as active, the others as inactive; ? = inconclusive; . = not tested or not shown; & = joins results of further samples; [ ] = another dose, or the depositor's remark. Unless noted, the call rests on the fitted dose curve; in most records, active means well fitted rising curve with a large enough effect; inconclusive means small, poorly fitted or top-dose-only effect; inactive means no such curve, though single readings can be large or run the other way. Potency means the concentration at half of the fitted maximal effect.
# The line under a structure holds: MARV entry inh	SARS PLpro yeast	Lassa entry inh	Cruzain inh Det	RE007 growth inh	Cruzain noTriton	2A StopGo	NS1 function inh
CN(C(=O)COC(=O)c1ccc(F)c(S(=O)(=O)N2CCOCC2)c1)C1CCS(=O)(=O)C1 (stereo not drawn)
  -2%	1%	?	.	-16%	.	3%	.
Cc1ccc(/C=N/n2c(C)nc3ccccc3c2=O)o1
  .	2%	.	.	13%	.	26%	-4%
CCOc1ccccc1NC(=O)C(=O)/C=C(\O)c1cc(OC)ccc1OC
  -7%	?	?	-3.4%	-17%	?	-21%	11%
O=C(NCC1CCCO1)c1ccc(-c2ccccc2Cl)o1 (stereo not drawn)
  ?	-1%	?	.	-21%	.	4%	.
Cc1nc(N2CCCCC2)sc1C(=O)c1cccc([N+](=O)[O-])c1
  -7%[46.1 µM]	1%	-23%	.	6%	.	-13%	-13%
CC(=O)N1C(C)c2ccccc2C(C)(C)CC12CCCCC2 (stereo not drawn)
  ?	-18%	2%	-5.2%	22%	5%	?	-23%
CC[C@@H](C)[C@H](NC(=O)Cc1c(C)c2c(cc(C)c3c(C)coc32)oc1=O)C(=O)O
  4%[46.1 µM]	2%	2%[46.1 µM]	.	-1%	.	-8%	7%
CCNC(=O)OCC12CC3CC(CC(C3)C1)C2
  ?	5%	-14%	-1.1%	15%	-11%	-20%	4%
O=C(CSc1nc2c(cnn2-c2ccc(F)cc2)c(=O)[nH]1)N1CCCc2ccccc21
  ?	0%	21%	-14%	3%	28%	2%	-35%
COC(=O)C1=C(C)N(c2ccc(OC)c(OC)c2)C(=O)C1
  0%	3%	30%	2.6%	-4%	8%	.	8%
CCc1sc2nc(SCC(=O)Nc3cc(C)on3)n(-c3cccc(OC)c3)c(=O)c2c1C
  -21%	-4%	-17%	-3.0%	-8%	12%	3%	22%
CCCCN(C(=O)CN1C(=O)C2CCCCC2C1=O)c1c(N)n(CCCC)c(=O)[nH]c1=O (stereo not drawn)
  3%[46.1 µM]	-9%	3%	.	0%	.	-9%	.
Cc1ccc(S(=O)(=O)N2CCn3cccc3C2C)cc1 (stereo not drawn)
  ?	-1%	8%	.	17%	.	4%	.
CCOC(=O)C1(Cc2cccc(OC)c2)CCCN(C(=O)c2cc(C)oc2C)C1 (stereo not drawn)
  .	1%	.	.	11%	.	0%	-10%
O=C1CC(c2ccccc2Br)c2c(c3ccccc3oc2=O)O1 (stereo not drawn)
  .	.	-19%[46.1 µM]	-1.0%	.	-10%	-12%	.

# The line under a structure holds: MARV entry inh	SARS PLpro yeast	Lassa entry inh	Cruzain inh Det	RE007 growth inh	Cruzain noTriton	2A StopGo	NS1 function inh
COC(=O)c1c(C)sc(-c2c(-c3cccc(Cl)c3)[nH]c3c2c(=O)[nH]c(=O)n3C)c1O
  12%[46.1 µM]	.	8%[46.1 µM]	-1.7%	.	-10%	?	.
COc1cc(/C=C/c2onc(C)c2[N+](=O)[O-])cc(OC)c1OC
  ?	.	10%	.	-8%	.	-16%	.
Fc1ccccc1/C=N/Nc1nc(N2CCCCC2)nc(N2CCCCC2)n1
  .	-3%	.	.	-8%	.	-6%	0%
CC(C)CN(CC(C)C)C(=O)CN1C(=O)NC2(CCCc3ccccc32)C1=O (stereo not drawn)
  -15%[46.1 µM]	0%	-23%	.	-2%	.	61%[activator]	-4%
CC1(C)CN2C(c3ccc(Cl)cc3)N2C1 (stereo not drawn)
  12%	1%	-1%	3.6%	12%	-7%	17%	-17%
CC(C)c1ccc(NC(=O)CCNC(=O)N2CC(=O)Nc3ccccc32)cc1
  .	0%	.	.	0%	.	-8%	5%
N#C/C(=N\Nc1cccc(Cl)c1)C(=O)c1ccccc1
  ?	-37%	?	-2.3%	-14%	-19%	18%	-145%
COC(=O)c1sc(N2C(=O)c3oc4ccc(C)cc4c(=O)c3C2c2ccc(OC)cc2)nc1C (stereo not drawn)
  9%[46.1 µM]	.	-1%[46.1 µM]	-0.8%	.	-3%	0%	.
COc1cc2ccccc2cc1C(=O)N1CC(C)CC(C)C1 (stereo not drawn)
  .	4%	.	.	3%	.	-18%	-15%
CN(C(=O)COC(=O)COc1ccc2c(c1)CCC2)c1c(N)n(Cc2ccccc2)c(=O)[nH]c1=O
  21%[46.1 µM]	-1%	-12%	.	-3%	.	-4%	.
COc1cccc(C2CCN(CC(=O)Nc3cc(Cl)ccc3OC)CC2O)c1 (stereo not drawn)
  -25%	-1%	-22%	.	12%	.	0%	-20%
O=C(COC(=O)c1ccccc1O)NCC1COc2ccccc2O1 (stereo not drawn)
  ?	2%	?	.	-2%	.	-24%	.
CC(Sc1ccccc1)C(=O)N1CCN(S(=O)(=O)c2ccccc2F)CC1 (stereo not drawn)
  0%	-2%	-1%	.	-6%	.	2%	5%
COc1cc(CO)cc(Br)c1OCC(=O)O
  -3%	3%	.	1.5%	-1%	-8%	-5%	-6%
CCCc1nc2oc3c(NCc4ccccn4)ncnc3c2c2c1COC(C)(C)C2
  -19%	0%	-10%	4.6%	-9%	?	-27%	-36%

# The line under a structure holds: MARV entry inh	SARS PLpro yeast	Lassa entry inh	Cruzain inh Det	RE007 growth inh	Cruzain noTriton	2A StopGo	NS1 function inh
CCc1ccc(NC(=O)NCC2CCN(c3ccc(OC)cc3)C2)cc1 (stereo not drawn)
  -32%[46.1 µM]	0%	-26%[46.1 µM]	.	0%	.	-5%	0%
CC(=O)Nc1ccc(S(=O)(=O)Nc2ccccc2C(=O)N2CCCCCC2)cc1
  .	3%	.	.	-5%	.	20%	-4%
CCOc1ccc(/C=N/NC(=O)c2ccoc2C)cc1OC
  ?	28%	-9%	.	-10%	.	14%	-21%
Cc1cc(C)cc(C(=O)N2CCN=C2SCc2ccc([N+](=O)[O-])cc2)c1
  -1%	14%	6%	-3.2%	24%	11%	?	21%
CCCN(CCC)CCCNC(=O)CCNS(=O)(=O)c1ccc(Br)cc1
  ?	11%	8%&-6%	-1.5%	2%	-12%	-21%	-12%
Cc1cc(O)c(C(C[N+](=O)[O-])c2ccc(Cl)cc2)c(=O)o1 (stereo not drawn)
  0%	-3%	-1%	0.4%	-7%	-15%	-19%	-3%
CCOc1ccc(S(=O)(=O)N2CCCCC2)cc1NC(=O)C1CCC1
  0%	-1%	-9%[46.1 µM]	.	-12%	.	-14%	.
CCOC(=O)C1=C(COC(=O)c2ccccc2[N+](=O)[O-])NC(=O)NC1C (stereo not drawn)
  10%[46.1 µM]	0%	-1%	.	-4%	.	-6%	.
Cc1ccccc1-c1noc(-c2ccc(NCC3CCCO3)c([N+](=O)[O-])c2)n1 (stereo not drawn)
  3%[46.1 µM]	.	-7%[46.1 µM]	-8.7%	.	-10%	21%	.
CC(C)Oc1ccc(S(=O)(=O)N2CCOCC2)cc1NC(=O)C1=COCCO1
  -9%	-3%	10%	.	-2%	.	-2%	.
O=C(COC(=O)Cc1ccsc1)NC(c1ccccc1)c1ccccc1
  14%	18%	7%	-3.3%	7%	-1%	0%	2%
Cc1ccc[n+](C(C)C(=O)Nc2ccc([N+](=O)[O-])cc2C)c1 (stereo not drawn)
  0%[46.1 µM]	-1%	-12%[46.1 µM]	.	-1%	.	-6%	.
C=CCN(c1ccccc1Cl)S(=O)(=O)c1cccc(C(=O)OCC(=O)N(C)C2CCS(=O)(=O)C2)c1 (stereo not drawn)
  ?	-1%	?	.	5%	.	-28%	.
Nc1nc2ccccc2cc1-c1cccs1
  .	0%	.	.	-3%	.	53%[activator]	-5%
COc1ccc(-c2n[nH]c(=S)o2)c(OC)c1
  -26%	4%	1%	0.7%	-1%	-3%	6%	1%

# The line under a structure holds: MARV entry inh	SARS PLpro yeast	Lassa entry inh	Cruzain inh Det	RE007 growth inh	Cruzain noTriton	2A StopGo	NS1 function inh
Cc1ccc(C)n1Cc1ccc(C(=O)O)cc1
  9.2µM*	2%	-4%	-8.2%	12%	?	3%	21%[9.22 µM]
Cc1ccn2c(=O)nc(SCC(=O)NCc3ccc(F)cc3)nc2c1
  30%	5%	19%[46.1 µM]	.	-16%	.	-6%	.
CCc1ccc(NC(=O)c2ccc3c(c2)nnn3CC)cc1
  .	.	10%[46.1 µM]	2.9%	.	-2%	33%[activator]	.
Cc1cccc(NS(=O)(=O)c2ccc3oc(=O)c4ncn(C)c4c3c2)c1C
  .	.	?	-2.1%	.	20%	-3%	.
CC1CCC/C(=N\NS(=O)(=O)c2ccccc2)C1 (stereo not drawn)
  .	0%	.	.	11%	.	-6%	-2%
C/C(=N\Nc1ccc(C(F)(F)F)cc1[N+](=O)[O-])C1CC1
  21%	6%	-1%	-1.8%	-5%	-4%	-5%	-2%
Cc1ccc(NC(=O)c2cncc(Br)c2)cc1S(=O)(=O)N(C)C
  ?	17%	?	-3.3%	17%	7%	32%[activator]	20%
COc1ccc(N(CC(=O)N2CCN(Cc3ccccc3)CC2)S(C)(=O)=O)cc1Cl
  .	-5%	.	.	1%	.	-28%	-7%
COc1ccc(Cl)cc1/C=C1/C(=O)ON=C1C
  -7%[46.1 µM]	-1%	?	.	32%	.	32µM*	1%
CN(Cc1ccccc1)C(=S)NC(=O)c1ccccc1
  ?	7%	-27%[46.1 µM]	.	1%	.	3%	-7%
COc1cc([N+](=O)[O-])ccc1NC(=O)Cc1ccc(C)cc1
  .	-3%	.	.	9%	.	4%	-9%

# Full records, quoted from the list. Order of values: MARV entry inh | SARS PLpro yeast | Lassa entry inh | Cruzain inh Det | RE007 growth inh | Cruzain noTriton | 2A StopGo | NS1 function inh
# Record of CCOc1ccccc1NC(=O)C(=O)/C=C(\O)c1cc(OC)ccc1OC : -7% | ? | ? | -3.4% | -17% | ? | -21% | 11%
# Record of CCOc1ccc(/C=N/NC(=O)c2ccoc2C)cc1OC : ? | 28% | -9% | . | -10% | . | 14% | -21%
# Record of C/C(=N\Nc1ccc(C(F)(F)F)cc1[N+](=O)[O-])C1CC1 : 21% | 6% | -1% | -1.8% | -5% | -4% | -5% | -2%

# Source: PubChem BioAssay (National Center for Advancing Translational Sciences (NCATS))

# No enrichment for hits; overall some 4.8% were active at least once.
